WNV NS2B-NS3 inh – inhibitors of WNV NS2B-NS3 protease, primary screen, biochemical, fluorogenic substrate; Genome polyprotein (West Nile virus), P06935; fluorogenic substrate Ex360/Em465; hits give low values; z-score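 (tested at a level between 10 and 100 µM)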; 65,000 compounds, 0.18% hits;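 active = z-score at -3 or under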;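 also: score is relative to mean and spread of the compound wells of a plate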
Target sequence (P06935 1371-1501 limits assumed): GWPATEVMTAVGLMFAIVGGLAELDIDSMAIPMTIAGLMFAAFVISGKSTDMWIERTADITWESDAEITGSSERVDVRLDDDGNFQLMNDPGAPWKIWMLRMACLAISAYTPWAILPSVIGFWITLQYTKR
Target sequence (P06935 1502-1679 limits assumed): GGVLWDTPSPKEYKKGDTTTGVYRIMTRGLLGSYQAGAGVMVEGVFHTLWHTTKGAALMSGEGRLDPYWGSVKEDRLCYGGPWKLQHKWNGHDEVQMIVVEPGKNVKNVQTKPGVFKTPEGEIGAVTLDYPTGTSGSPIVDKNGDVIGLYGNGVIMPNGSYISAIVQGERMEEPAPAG
Hsc70 ATP site – Hsc70 inhibitors, probe displacement, primary screen, biochemical, fluorescence polarization (AID 568). Heat shock cognate 71 kDa protein (Homo sapiens). Hsc70 fluorescence polarization, probe displacement; higher % means a stronger effect; strong numbers were not always called active. displacement, % at 20 µM; hits with a dose series show IC50 in µM. 83,000 tested, under 10 active;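 active = displacement above 50% without optical interference and an IC50 on retest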;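 also: ATPase domain with a fluorescein-tagged ATP probe; 0% = vehicle and 100% = excess ADP; read after one hour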
MT1-MMP promoter – inhibitors of MT1-MMP promoter transcription, cell-based, luciferase reporter, luminescence (AID 618); MT1-MMP promoter luciferase reporter cells, luminescence; calls from a first round at 10 µM; hits with a dose series show EC50 in µM; 87,000 compounds, 0.62% hits;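 active = over half of the reporter light lost at 10 µM or EC50 under 50 µM; inactive = the rest and hits that failed the dose series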;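 also: actives suppress MT1-MMP promoter-driven transcription so potencies describe inhibitors; HT1080 fibrosarcoma cells; overnight exposure; toxic or luciferase-blocking compounds were not removed from the actives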
* = called active by the depositor; i = inactive; nt = no result given; + = active, no number.

Compound	WNV NS2B-NS3 inh	Hsc70 ATP site	MT1-MMP promoter
Cc1cc(OCC(=O)Nc2ccc3c(c2)OCCO3)cc(C)c1Cl	nt	0.4%	i
O=C(Nc1ccc(C(F)(F)F)cc1)C1CC(=O)N(c2ccc3c(c2)OCCO3)C1 (stereo unspecified)	nt	-3.3%	i
CC(NC(=O)c1ccc(CS(=O)(=O)c2ccc(Cl)cc2)o1)c1ccc2c(c1)OCCO2 (stereo unspecified)	nt	-0.8%	i
CCN1CCN(C(=O)Nc2ccc(Cc3ccc(NC(=O)N4CCN(CC)CC4)cc3)cc2)CC1	-0.66	-1.6%	i
CN(C)c1ccc(C=NCC2(O)CCOC(C)(C)C2)cc1 (stereo unspecified)	-0.77	5.1%	i
CC(C)N1C(=O)C2C(C(=O)NC3CCCCC3)C3C=CC2(O3)C1C(=O)NC1CCCCC1 (stereo unspecified)	-0.55	4.3%	i
C=CCOc1nc2c(c(=O)n(C)c(=O)n2C)n1Cc1ccccc1Cl	0.41	-3.9%	i
CC1(C)CC2(CCO1)OC(=O)CC2C(=O)NCc1ccccc1 (stereo unspecified)	2.31	-8.8%	i
CCCCCCCCCCCCCCCC(=O)OC[C@H](COP(=O)([O-])OCC[N+](C)(C)C)OC(=O)CCCCCCCCCCCCCCC	nt	-0.9%	i
CCC(c1nnnn1C(C)(C)CC)N(CCCO)Cc1cc2cc(C)cc(C)c2[nH]c1=O (stereo unspecified)	-1.27	3.3%	i
O=C(Cn1ncc2c(=O)oc3ccccc3c21)N1CCCN(Cc2ccccc2F)C1	2.28	-0.1%	i
Cc1cc(C)n2cc(CSc3nnc(-c4ccccc4)o3)nc2n1	-0.18	5.1%	i
CC(=O)c1cc(F)c(N2CCN(C(=O)Cc3ccccc3)CC2)cc1C	-0.07	5.1%	i
O=S(=O)(c1ccccc1)N1C2CCC1CC(O)(c1cccnc1)C2 (stereo unspecified)	-0.18	1.8%	i
O=C(NCC(=O)N(Cc1ccccc1)C(C(=O)NC1CCCC1)c1cccnc1)c1ccco1 (stereo unspecified)	nt	-4.4%	i
O=C(NCCN1CCCC1)c1ccc(CS(=O)(=O)c2c(Cl)cccc2Cl)o1	-0.6	3.7%	i

Among those listed so far, three have fluorine:
Compound	WNV NS2B-NS3 inh	Hsc70 ATP site	MT1-MMP promoter
O=C(Nc1ccc(C(F)(F)F)cc1)C1CC(=O)N(c2ccc3c(c2)OCCO3)C1 (stereo unspecified)	nt	-3.3%	i
O=C(Cn1ncc2c(=O)oc3ccccc3c21)N1CCCN(Cc2ccccc2F)C1	2.28	-0.1%	i
CC(=O)c1cc(F)c(N2CCN(C(=O)Cc3ccccc3)CC2)cc1C	-0.07	5.1%	i

The list continues.
Compound	WNV NS2B-NS3 inh	Hsc70 ATP site	MT1-MMP promoter
COCc1nnc(NC(=O)C(C)C)s1	0.72	-1.1%	i
COCc1cc(=O)n2c([nH]c3ccccc32)c1C#N	2.09	0.6%	i
O=C1C2C3C=CC(O3)C2C(=O)N1CC(O)c1ccccc1 (stereo unspecified)	-0.55	-0.3%	i
Cc1cc2n(n1)C(c1sccc1C)Nc1ccccc1-2 (stereo unspecified)	1.33	-1.6%	i
CCCCc1n[nH]c2c1/C(=N/O)CC(C)(C)C2	nt	1.5%	i
CN1/C(=C\C(=O)COc2ccc3c(c2)OCO3)C(C)(C)c2ccccc21	0.69	-22.1%	i
Cc1nc2ccc(F)cc2cc1C(=O)NCc1ccco1	-0.15	-4.4%	i
O=C1CCCC2=C1C(c1cn(-c3ccccc3)nc1-c1cccs1)c1c([nH]c(=O)[nH]c1=O)N2 (stereo unspecified)	-1.29	-4.8%	i
CC(C)(C)NCc1cccn1-c1sc2c(c1C#N)CCCC2	-0.83	0.8%	i
O=C(Nc1ccc2c(c1)Cc1ccccc1-2)c1ccco1	0.65	-1.3%	i
O=C(COC(=O)C1CC(=O)N(c2ccccc2)C1)c1ccccc1 (stereo unspecified)	0.19	1.6%	i
CSc1ccccc1-n1nnnc1SCC(=O)NCc1cccs1	-0.58	-2.9%	i
O=c1[nH]cnc2scc(C3COc4ccccc4O3)c12 (stereo unspecified)	-0.17	2.0%	i
COc1cccc(NC(=O)CSc2ncnc3c2oc2ccccc23)c1	0.6	-4.1%	i
COc1ccc2[nH]c(C(=O)O)c(CCC(=O)O)c2c1	0.58	0.6%	i
O=C(CN1CCN(C(=O)c2cccc(F)c2)CC1)Nc1ccccc1F	-1	8.4%	i
CCC(c1nnnn1Cc1cccs1)N1CCN(c2nc3ccccc3s2)CC1 (stereo unspecified)	2.25	-6.3%	i
Cc1ccc(Nc2ncc3c(n2)CC(c2ccco2)CC3=O)c(C)c1 (stereo unspecified)	0.51	2.8%	i
O=C(O)c1ccc(N2CCCC2=O)cc1	1.95	4.0%	i
Cn1c(=O)oc2cc(S(=O)(=O)Nc3cccc4c3CCCC4)ccc21	3.53	-28.6%	i
Cc1cccc(N(CC(=O)NC2CCCCC2)C(=O)CCC(=O)Nc2ccccn2)c1	0.59	3.9%	i
Cc1nc2ccccc2c(=O)n1NC(=O)c1c(O)c2c(n(CC(C)C)c1=O)CCCC2	-1.09	-1.7%	i
Cc1oncc1C(=O)NC(C)C	nt	0.6%	i
CC(OC(=O)CCc1nc2ccccc2c(=O)[nH]1)C(=O)NCc1ccc2c(c1)OCO2 (stereo unspecified)	0.37	0.9%	i
CCOC(=O)CON1C(=O)c2ccccc2C1=O	nt	2.2%	i
Cc1cccc(S(=O)(=O)Nc2nc3ccccc3nc2NCc2ccco2)c1	0.37	5.9%	i
Cc1ccc(CSCC(=O)N2CCN(c3ccc(F)cc3)CC2)cc1	nt	5.6%	i
COC(=O)c1c(NC(=O)c2ccnn2C)sc(C)c1C	nt	-3.4%	i
CCC(NC(=O)c1ccccc1NC(=O)c1ccco1)C(=O)O (stereo unspecified)	-0.37	-5.5%	i
COC(=O)c1ccc2c(=O)n(Cc3ccco3)c(SCC(=O)Nc3ccc(C)c(Cl)c3)nc2c1	0.75	-1.1%	i
CCOC(=O)Cc1cc(=O)n2[nH]c(-c3ccc(C)cc3)cc2n1	nt	-6.3%	i
COC(=O)C1=CN(C2CC2)C=C(C(=O)OC)C1c1ccccc1OC	0.23	0.2%	i

Just WNV NS2B-NS3 inh and MT1-MMP promoter, for 5 of the compounds above:
smiles	WNV NS2B-NS3 inh	MT1-MMP promoter
O=c1[nH]cnc2scc(C3COc4ccccc4O3)c12 (stereo unspecified)	-0.17	i
Cc1cc(OCC(=O)Nc2ccc3c(c2)OCCO3)cc(C)c1Cl	nt	i
CCCCCCCCCCCCCCCC(=O)OC[C@H](COP(=O)([O-])OCC[N+](C)(C)C)OC(=O)CCCCCCCCCCCCCCC	nt	i
O=C(Cn1ncc2c(=O)oc3ccccc3c21)N1CCCN(Cc2ccccc2F)C1	2.28	i
COc1cccc(NC(=O)CSc2ncnc3c2oc2ccccc23)c1	0.6	i

The results go on:
Compound	WNV NS2B-NS3 inh	Hsc70 ATP site	MT1-MMP promoter
CCOC(=O)Cc1csc(NC(=O)CSc2nnc(-c3ccc(C)cc3)o2)n1	1.33	2.1%	i
COc1ccc(N(Cc2ccco2)C(=O)c2ccccc2F)cc1OC	-0.55	-0.8%	i
Cc1ccc(C(=O)NCc2occc2C(=O)O)o1	0.27	2.4%	i
Cc1cccnc1Nc1nc(-c2ccc(O)cc2)cs1	nt	-2.2%	i
COc1ccc(CSC(=N)N)cc1[N+](=O)[O-]	nt	0.1%	i
CCOc1ccc(NC(N)=O)cc1	-0.26	0.7%	i
O=C(CSc1nnnn1C1CCCCC1)NCc1ccco1	-0.68	4.1%	i
Cc1ccccc1-c1nc2cc(Cl)ccc2o1	nt	-8.2%	i
CC1=C(C(=O)OC2CCCCC2)C(c2ccc(C)o2)C2=C(CCCC2=O)N1 (stereo unspecified)	0.06	6.1%	i
O=C(CCc1ccccc1)Nc1ncn[nH]1	-0.17	-1.7%	i
O=C(NCc1ccccn1)c1ccc(NC(=O)c2ccco2)cc1	-0.02	2.2%	i
COc1ccc(S(=O)(=O)N2CCN(Cc3ccccc3)CC2)cc1	-0.39	-5.2%	i
CCN(CC)CCNCc1ccc(-c2ccc(Cl)cc2)o1	0.31	4.9%	i
Cc1cccc(CSC2=NCCN2C(=O)c2ccco2)c1	1.16	3.5%	i
CCc1cc2cc(C(=O)N3CCN(Cc4ccccc4)CC3)sc2s1	-1.44	-1.5%	i
Cc1ccc(NCc2nnc(SCC#N)o2)c(C)c1	nt	-1.8%	i
CNC(=O)C(C)NS(=O)(=O)c1ccc(F)cc1 (stereo unspecified)	nt	3.4%	i
Cc1cc(O)c(C(C[N+](=O)[O-])c2ccc(Cl)cc2Cl)c(=O)o1 (stereo unspecified)	nt	5.4%	i
CC1C2CC(C(S(=O)(=O)N3CCOCC3)C2=O)C1(C)C (stereo unspecified)	-1.45	-4.7%	i
Cc1ccc(S(=O)(=O)NCCN=C(CN2CCOCC2)NS(=O)(=O)c2ccc(C)cc2)cc1	-0.9	-2.0%	i
COc1ccc(S(=O)(=O)NCCSCc2ccco2)cc1C	nt	1.3%	i
COc1cc(OC)c(C#N)c(S(=O)(=O)Cc2ccccc2)c1	nt	7.5%	i
Cc1nc2ccc(S(=O)(=O)NC(C(=O)N3CCn4c3nc3ccccc34)C(C)C)cc2s1 (stereo unspecified)	1.09	0.4%	i
Cc1[nH]n2c(=O)c3c(nc2c1-c1ccccc1)CCC3	0.4	4.1%	i
O=C(CSc1nnnn1C1CCCC1)Nc1ccc(F)cc1	nt	4.1%	i
CCOC(=O)C1=C(C)NC2=C(C(=O)CCC2)C1c1cccnc1 (stereo unspecified)	-0.27	0.1%	i
O=C(c1ccc(S(=O)(=O)N2CCOCC2)cc1)N1CCN(c2ccc(F)cc2)CC1	-0.86	-8.7%	i
CCc1cccc(C)c1NC(=O)CCCC(=O)O	0.84	-3.8%	i
COc1ccccc1NC(=O)CSc1nnc(Cc2ccccc2)o1	-0.69	-1.5%	i
Cc1ccc(NC(=O)N(CCCN2CCOCC2)Cc2cc3cc4c(cc3[nH]c2=O)OCO4)cc1	-0.94	-2.6%	i
COc1ccc(-c2nnc(NC(=O)c3ccc(S(=O)(=O)N4CCc5ccccc5C4)cc3)o2)cc1	0.3	-5.0%	i
Cc1ccc(-n2c(SCC(=O)Nc3cc(C)on3)nc3c(c2=O)SC(C)C3)cc1 (stereo unspecified)	-0.63	-2.9%	i
CCCC(CCC(=O)OC)(C(=O)OCC)c1csc(N)n1 (stereo unspecified)	-0.45	-7.3%	i
O=C(NC1CC2CCCC(C1)N2C(=O)Nc1ccc(Cl)c(C(F)(F)F)c1)C1CC1 (stereo unspecified)	nt	-5.9%	i
CCOC(=O)CSc1nnc(CNc2ccc(F)cc2)o1	1.55	-0.7%	i
Nc1nonc1C(=O)NCCNCc1cc(Br)ccc1OCc1ccccc1F	0.31	-3.9%	+
COc1cc(Cn2ccnc2)c(OC)cc1Cn1ccnc1	0.04	-1.6%	i
Nc1c(Sc2ccccc2)c(=O)[nH]c(=O)n1Cc1ccccc1	-0.45	3.2%	i
CCOC(=O)c1ccccc1NC(=O)Cn1cnc2c(cnn2-c2ccccc2)c1=O	1.4	3.0%	i
Cc1cc(NC(=O)COc2cccc(C)c2C)no1	-1.94	-3.2%	i
COc1ccccc1NC(=O)C1=C(C)Nc2ncnn2C1c1ccccc1C (stereo unspecified)	-1.26	0.0%	i
O=C(c1csc(Nc2ccccc2Cl)n1)N1CCCC1	-1.51	-3.8%	i
O=C(Nc1c(-c2ccccc2)nc2sccn12)c1ccccc1	-0.61	-2.1%	i
COCCn1c(Cc2ccccc2)nnc1SCC(=O)NC(C)(C)C	0.11	-1.0%	i
Cc1cccc(NC(=O)C2CCCN2C(=O)Oc2ccccc2)c1C (stereo unspecified)	nt	-2.5%	i
O=C(O)CN1CCOCCOCCN(CC(=O)O)CCOCCOCC1	1	-0.1%	i
CC(O)(C#CCN1CCCCC1)c1ccccc1 (stereo unspecified)	nt	-0.2%	i
Cc1cc(S(=O)(=O)N(C)CCc2ccccc2)ccc1-n1cnnn1	-1.22	-5.2%	i
CCOc1cc(-c2ccccc2)nc(N)n1	-0.89	1.7%	i
Cc1cc(=O)n2nc(N3CCC(C(=O)N4CCN(Cc5ccccc5)CC4)CC3)sc2n1	0.08	0.2%	i
COc1ccc(C=C(C(C)=O)C(C)=O)cc1OC	nt	8.8%	i
Cc1nc2ccc(N)cc2c(=O)n1Cc1ccc(Cl)cc1	0.35	-5.2%	i
Cc1c(Br)c([N+](=O)[O-])nn1CC(=O)NCc1ccccn1	nt	2.6%	i
COCn1c(-c2cccc(Br)c2)nc2ccccc21	-1	0.5%	i
COC(=O)c1ccc(OCCN2C3=NCCN3c3ccccc32)cc1	0.6	-3.8%	i

Screens (PubChem)
